High-throughput results: PubChem BioAssay, several laboratories
CBX7 inh – inhibitors of human CBX7 binding to H3K27me3 peptide. O95931. AlphaScreen His6-CBX7 / biotin-H3K27me3 peptide binding; active compounds read low. normalised signal (fraction of DMSO) (no concentration beside the values). hit rate 1.1% among 66,000; in the data active = normalised signal below about 0.5;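 note: 100 nL library stock added to about 20 µL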
Target sequence (O95931 whole entry, looked up): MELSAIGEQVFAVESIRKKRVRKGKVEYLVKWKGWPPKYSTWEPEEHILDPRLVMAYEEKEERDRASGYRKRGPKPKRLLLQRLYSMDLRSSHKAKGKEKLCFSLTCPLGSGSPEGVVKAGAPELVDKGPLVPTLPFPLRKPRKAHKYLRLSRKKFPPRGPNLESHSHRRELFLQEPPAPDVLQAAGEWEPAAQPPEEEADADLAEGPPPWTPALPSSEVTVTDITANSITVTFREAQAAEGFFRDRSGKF
CBX7 inh z-score – further read-out of CBX7 inh, marked with its call; z-score; measured here: z-score of CBX7 signal; some inactives read as strong as hits; reference of the scale not given here;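 same signal on another scale; lower means less binding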
Active calls of the source: *; & = joins results of further samples; ! = not active in a repeat. This is a subset, so the mix of outcomes need not match the whole.

A first look, 2 compounds:
SMILES	CBX7 inh z-score	CBX7 inh
CCOCCCNc1oc(COc2ccc(F)cc2)nc1C#N	-0.389	0.969
CC1CCCC(C)N1CCNC(=O)c1cc(=O)[nH]c2ccc(S(=O)(=O)N3CCCCC3C)cc12 (centres undefined)	0.49	1.02

The list itself, from the first entry:
SMILES	CBX7 inh z-score	CBX7 inh
CCOCCCNc1oc(COc2ccc(F)cc2)nc1C#N	-0.389	0.969
CC1CCCC(C)N1CCNC(=O)c1cc(=O)[nH]c2ccc(S(=O)(=O)N3CCCCC3C)cc12 (centres undefined)	0.49	1.02
CCOC(=O)c1c(NC(=O)CSc2nc3ccccc3[nH]2)sc2c1CCCC2	-2.52	0.843
COc1ccc(-c2nc3ccc(Cl)cn3c2NC(c2ccccc2)c2ccccc2)cc1	-5.79	0.782
CC1CCCCC1NC(=O)c1nnc(Cc2ccc(Cl)cc2)o1 (centres undefined)	1.08	1.02
Cc1ccc2nc(-c3ccccn3)c(Nc3ccc4c(c3)OCO4)n2c1	-20.9*	0.0299*
CCOc1ccc(-c2ncnn2-c2ccc(Cl)cc2)cc1	1.41	1.12
COc1cc(Nc2nc(C)nc3sc(C)c(C)c23)cc(OC)c1	2.23	1.23
O=C(NCCCN1CCCC1)c1ccc2c(c1)N(Cc1ccccc1F)C(=O)c1ccccc1S2=O (centres undefined)	-0.224	0.991
COc1cc(CN2CCN(Cc3ccccc3F)CC2)cc(OC)c1OC	-1.37	0.945
CCC(C)NC(=O)c1cnn2c(C(F)(F)F)cc(-c3ccccc3)nc12 (centres undefined)	1.96	1.08
O=C(Nc1ccc(-c2nc3ccccc3[nH]2)cc1)c1cccc2c1C(=O)N(Cc1cccnc1)C2	-2.05	0.89
COc1ccc(CCNC(=O)Cn2c(=O)n(-c3ccc(F)cc3)c(=O)c3sccc32)cc1OC	-2.16	0.868
CCOCCCNC(=O)c1c[nH]c2ccc(S(=O)(=O)Nc3ccccc3F)cc2c1=O	-0.202	0.989
COCCNC(=O)C1CCN(Cc2nc(-c3ccc(OC)c(OC)c3)oc2C)CC1	-0.793	0.98
Cc1ccc(-c2noc(C(C)Oc3ccc(Cl)cc3Cl)n2)cc1 (centres undefined)	13	2.17
Cc1cc2c(cc1C)C(c1ccc(Cl)c(Cl)c1)CC(=O)N2 (centres undefined)	0.25	1.03
Cc1cc2ncn(Cc3ccc(Cl)cc3)c2cc1C	-2.85	0.886
O=C(CN1C(=O)COc2ccc(Cl)cc21)N1CCN(c2ccccc2)CC1	0.315	1.01
CCc1ccc(NC(=O)c2cc3c(n(-c4ccc(C)cc4)c2=O)CC(C)(C)CC3=O)cc1	0.349	1.03
NS(=O)(=O)c1ccc(NC(=O)c2cc(-c3ccccc3Cl)nc3ccccc23)cc1	-3.52	0.642
O=C(NCCN1CCOCC1)c1cc(=O)[nH]c2ccc(S(=O)(=O)N3CCCCC3)cc12	0.0703	1.01
COc1ccc(NC(=O)CSc2nc(-c3ccccc3)[nH]c2-c2ccc(F)cc2)cc1OC	-0.68	0.838
CC(NC(=O)c1c(F)cccc1F)C(c1cccs1)N1CCN(c2ccccc2F)CC1 (centres undefined)	-0.918	0.913
O=C(Nc1ccccc1Br)C1CCCN(S(=O)(=O)c2cccc3cccnc23)C1 (centres undefined)	0.458	1.02
Cc1ccc2c(c1)NC(=O)C(CC(=O)Nc1cc(C(F)(F)F)ccc1Cl)O2 (centres undefined)	0.977	1.02
COc1ccc(C(=O)NCc2nc3ccccc3n2Cc2ccccc2C)cc1OC	1.18	1.1
CCc1ccc(NC(=O)N(C2CCCC2)C2CCN(C(C)=O)CC2)cc1	0.828	1.02
COc1ccc(Nc2ncc(C(=O)N3CCN(c4ccccc4OC)CC3)c3ccccc23)cc1	-3.12	0.815
CCn1cc(C(=O)Nc2cc(C)c(Cl)cc2OC)c2cc(OC)c(OC)cc2c1=O	0.936	1.11
Cc1ccc(Oc2ccc(N3C(=O)c4ccc(NC(=O)c5ccccc5)cc4C3=O)cc2)cc1	0.457	1.01
Cc1cccc(-c2noc(COc3ccc(Cl)cc3)n2)c1	0.233	1.2
Cc1ccccc1NC(=O)Cn1nc(C)c2ccccc2c1=O	1.56	1.05
CCC(=O)N1CCc2cc(S(=O)(=O)Nc3ccc(S(=O)(=O)N4CCOCC4)cc3)ccc21	1.3	1.18
O=C(NCc1cccnc1)c1ccc2c(=O)n3c(nc2c1)CCCCC3	0.0185	1.01
COc1ccc(OC)c(CN2C(=O)c3ccccc3C2C(=O)NC2CCCC(C)C2C)c1 (centres undefined)	-0.65	0.949
Cc1ccc(Nc2cc(C)nc(-c3ccccc3)n2)cc1	0.236	1.14
COc1ccc(NC(=O)c2cc3c(s2)-c2c(C)cccc2OC3)cc1	-0.88	0.969
Cc1ccc(-c2n[nH]c(=O)c3ccccc23)cc1S(=O)(=O)NCCN1CCOCC1	0.819	1.09
COc1ccc(-n2nc3c(c2NC(=O)c2cc(C)cc(C)c2)CSC3)cc1	-3.73	0.836

Whole records, quoted from the list. Order of values: CBX7 inh z-score | CBX7 inh
COc1cc(Nc2nc(C)nc3sc(C)c(C)c23)cc(OC)c1 is listed as 2.23 | 1.23
O=C(Nc1ccc(-c2nc3ccccc3[nH]2)cc1)c1cccc2c1C(=O)N(Cc1cccnc1)C2 is listed as -2.05 | 0.89
COc1cc(CN2CCN(Cc3ccccc3F)CC2)cc(OC)c1OC is listed as -1.37 | 0.945
O=C(CN1C(=O)COc2ccc(Cl)cc21)N1CCN(c2ccccc2)CC1 is listed as 0.315 | 1.01
CCOCCCNc1oc(COc2ccc(F)cc2)nc1C#N is listed as -0.389 | 0.969

Following part
SMILES	CBX7 inh z-score	CBX7 inh
Cc1nc2c(-c3ccccc3)c(C)nn2c(C)c1CCC(=O)Nc1cccc(Cl)c1C	1.62	1.05
CCOC(=O)c1cnc2c(C)cc(C)cc2c1Nc1ccc(N2CCOCC2)cc1	-16.2*	0.35*
CCCCN(C(=O)Nc1cccc(OC)c1)C1CCN(C(C)=O)CC1	-1.11	0.916
COc1ccc(-c2nc(-c3ccc(OC)c(OC)c3)no2)cc1	-0.49	0.982
Cc1ccc(-c2ccc(C(=O)Nc3cc(-c4nc5cccnc5o4)ccc3C)o2)cc1Cl	-1.77	0.905
O=C(c1cc2sccc2n1Cc1ccc(F)cc1)N1CCC(C(=O)N2CCc3ccccc32)CC1	-5.37	0.867
CC(=O)Nc1ccc(NS(=O)(=O)c2ccc3nc(-c4ccccc4)[nH]c3c2)cc1	-0.278	0.789
Cc1cccc(N2C(=O)CC(N3CCN(C/C=C/c4ccccc4)CC3)C2=O)c1 (centres undefined)	-1.61&0.761	0.898&1.03
O=C(Nc1nc2c(Cl)cccc2s1)c1ccc(S(=O)(=O)N2CCCC2)cc1	1.69	1.04
CCCCN(C)C(=O)c1cc2c(s1)-c1c(C)cccc1OC2	10.2	1.3
CC1CCN(CCCNC(=O)C2CCC(=O)N2CCc2ccccc2)CC1 (centres undefined)	2.1	1.08
Cc1nnc(NCc2nc3ccccc3[nH]2)c2ccccc12	-0.858	0.925
Cc1cc(C)c(NC(=O)c2csc3c2CCC(C)C3)c(C)c1 (centres undefined)	2.9	1.07
CCc1ccc(-c2nc(C(=O)NCc3ccc(C)cc3)c(C)o2)cc1	-3.38	0.813
CCCCn1c(-c2nonc2NC(=O)c2ccccc2Cl)nc2ccccc21	9.6	1.37
COc1ccc(N(CC(=O)Nc2ccc(C)cc2)S(=O)(=O)c2cccnc2)cc1	0.987	1.14
O=C(Nc1nnc(-c2ccccc2)o1)c1ccc(F)c(S(=O)(=O)N2CCOCC2)c1	-8.44*!	0.117*!
Cc1nnc(NC(=O)CC(NC(=O)C(F)(F)F)c2ccccc2)s1 (centres undefined)	0.894	1.11
COc1ccc(Nc2nc(S(=O)(=O)c3ccc(C)cc3)c(Cl)s2)cc1	-0.694	0.6
Cc1ccccc1NS(=O)(=O)c1ccc2c(c1)NC(=O)CC(=O)N2	0.81	1.02
COc1ccc(C(=O)c2oc3ccccc3c2NC(=O)c2ccccc2C)cc1	5.72	1.29
COc1ccc(-c2cc3nc(C)c(CCC(=O)N4CCc5ccccc5C4)c(C)n3n2)c(OC)c1	-0.241	0.978
CN(C)S(=O)(=O)c1ccc(C(=O)Nc2c(C(=O)Nc3cccc(F)c3)oc3ccccc23)cc1	-0.256	0.98
CCN1C(=O)c2ccccc2S(=O)c2ccc(C(=O)N3CCN(c4cccc(C)c4)C(C)C3)cc21 (centres undefined)	-7.9	0.696
O=C(NCCc1ccccc1)C1CCN(S(=O)(=O)c2ccc(F)cc2)CC1	0.634	1.01
O=C(CSCc1cnn(-c2ccccc2)c1-n1cccc1)NCCc1ccc(Cl)cc1	3.18	1.07
CCCCOc1cccc(C(=O)Nc2c(C(=O)c3ccc(Br)cc3)oc3ccccc23)c1	0.323	1.09
Cc1cccc(C(=O)Nc2ccc3oc(-c4ccc(Cl)c(Cl)c4)nc3c2)c1	0.884	1.04
Cc1cc(C)cc(Nc2cc(C(=O)NCc3ccc(Cl)cc3)c3ccccc3n2)c1	6.81	1.44
Cc1nc2ncnn2c(C)c1CCC(=O)NCCc1ccccc1	0.198	1.01
O=C(CC1C(=O)N(c2ccccc2)C(=O)N1CCc1cccs1)Nc1ccc(Cl)cc1 (centres undefined)	1.67	1.04
CCOC(=O)c1[nH]c2c(c1Cc1ccccc1C)C(=O)CC(c1cc(OC)ccc1OC)C2 (centres undefined)	-1.3	0.898
COc1ccc(CNc2sc3c(c2C(=O)Nc2cc(Cl)ccc2OC)CCC3)cc1	-1.08	0.979
COc1ccc(-c2nc(-c3ccccc3)c(-c3ccc(Sc4ccccc4)cc3)[nH]2)cc1	-9.46	0.521
O=C(O)CCC(=O)N1CCc2cc(S(=O)(=O)N3CCN(c4cccc(Cl)c4)CC3)ccc21	-1.9	0.885
Cc1ccccc1-c1noc(-c2cc(-c3ccc(Cl)cc3)nc3ccccc23)n1	0.292	1.22
O=C(Nc1ccccc1)C1CC(=O)N(C2CCCCC2)C1 (centres undefined)	-1.9	0.881
COc1cccc(-c2cc(C(=O)Nc3cc(Cl)cc(Cl)c3)c3ccccc3n2)c1	-0.937	0.925
COc1ccc(Nc2cc(C(=O)N3CCOCC3)c3ccccc3n2)c(OC)c1	-3.83	0.75
COc1cccc2ccc(/C=C/c3cccc(Cl)c3)nc12	30.1	1.75
Cc1oc(-c2ccccc2Cl)nc1CS(=O)(=O)CC(=O)NC1CCCC1	0.798	1.03
COc1cccc(CNC(=O)CSCc2cnn(-c3ccccc3)c2-n2cccc2)c1OC	1.31	1.03
O=c1c(-c2ccccc2Cl)c(C(F)(F)F)oc2c(CN3CCOCC3)c(O)ccc12	0.166	1.02
CC(C)c1ccc(CN(C(=O)COc2ccc(C(C)C)cc2)C2CCS(=O)(=O)C2)cc1 (centres undefined)	0.641	1.07
O=C(CC1(O)C(=O)Nc2ccc(Cl)cc21)c1ccccn1 (centres undefined)	2.4	1.08
CC(C)CN(CC(C)C)c1nnc(NC(=O)Nc2ccc(F)cc2)s1	-0.101	0.974
NC(=O)c1nsnc1-c1ccccc1O	1.04	1.04
COc1ccccc1-c1cc(C(F)(F)F)nc(NCc2cccnc2)n1	-0.692	0.985
Cc1c(NC(=O)c2ccc(Br)cc2)cccc1-c1nc2ccccc2o1	1.4	1.04
Cc1cc(NC(=O)C2CCN(S(=O)(=O)c3cnc[nH]3)CC2)ccc1Br	0.295	1.04
O=c1cc(N2CCOCC2)[nH]c(=O)n1-c1ccc(Cl)cc1	-0.216	0.977
O=c1[nH]c2ccc(S(=O)(=O)NC3CCCC3)cc2[nH]1	1.17	1.1
Cc1ccc(C)c(OCc2nc(-c3cccnc3)no2)c1	0.0276	1.02
O=C(NCC1(c2ccccc2)CCOCC1)C(c1ccccc1)c1ccccc1	-1.3	0.935
COc1cc(OC)cc(-c2nc3nc(C)c(CCC(=O)NCc4ccccc4)c(C)n3n2)c1	-0.278	0.936
Cc1ccc2c(c1)c1c3n2CCN(CCC(N)=O)C3CCC1 (centres undefined)	-0.237	0.967
Fc1ccc(Cc2nnc(-c3ccc(Cl)cc3)o2)cc1	3.29	1.09
Cc1cc2c(cc1C)C(c1ccccc1C(F)(F)F)CC(=O)N2 (centres undefined)	-0.177	0.993
COc1cccc(NC(=O)C2CC(=O)N(c3ccc(OC(C)C)cc3)C2)c1 (centres undefined)	0.0243	1.02
CCC1=Nc2cc(C(=O)NCCCOC(C)C)ccc2Sc2ccc(Cl)cc21	-3.44	0.76

Continuation.
SMILES	CBX7 inh z-score	CBX7 inh
CC(=O)N1CCc2cc(S(=O)(=O)CCC(=O)Nc3nccs3)ccc21	-0.388	0.986
CN1c2ccccc2Oc2nnc(N3CCCCC3)cc21	-0.406	0.962
O=C(NCc1ccc(F)cc1)c1ccc2c(c1)NC(=O)C1CCCN21 (centres undefined)	-0.194	0.956
COc1ccc(N2CCN(CCCNC(=O)CN3C(=O)CSc4ncccc43)CC2)cc1	-0.109	0.957
CCN1CCN(c2nc3ccccc3c(=O)n2Cc2ccccc2)CC1	-0.249	0.88
CCn1c(C(=O)NC2CCCC2)cc2sc(Cl)cc21	1.05	1.03
COc1ccc(-c2nc3cc(NC(=O)c4ccccc4F)ccc3o2)cc1	2.42	1.06
CC1CCN(c2nc3ccc(C(=O)NCCCN4C(C)CCCC4C)cc3s2)CC1 (centres undefined)	3.88	1.41
CCOC(=O)C1CCN(C(=O)c2oc3ccc(S(=O)(=O)N4CCCCCC4)cc3c2C)CC1	-3.43	0.81
